High-throughput results (PubChem BioAssay)
RE007 growth inh: less growth of the S. pombe RE007 Vpr strain; Potency, µM (series often up to 92.2 µM), for inactives: top-dose activity change, negative = less growth; AID 651644; S. pombe RE007 Vpr strain, BacTiter-Glo ATP luminescence, 24 h; control for the full effect not named in the record; 0.21% of 360,000 active; active = well fitted falling curve with a large enough effect; inconclusive = small, poorly fitted or top-dose-only effect; inactive = no such curve, though single readings can be large or run the other way;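 note: % is set by controls: 0 for no effect and ±100 for the full control effect; nearly all actives have a fitted effect of over 50% in size; the assay follows cell death caused by Vpr and the record does not say whether a fall means rescue or toxicity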
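Fission yeast RE007 carrying one integrated HIV-1 vpr copy, seeded at OD 0.01 in PMG+AL medium with 23 nL pinned compound. Grown 24 h at 30 degrees; viability read by BacTiter-Glo luminescence after 5 min.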
NS1 inh: influenza NS1 inhibition; S. cerevisiae slowed by influenza A NS1, growth recovery by OD600; Potency, µM (series often up to 46.1 µM), for inactives: at the highest dose activity, positive = more growth; 0.4% of 270,000 active; AID 2326; active means well fitted rising curve with a large enough effect; inconclusive means small, poorly fitted or top-dose-only effect; inactive means no such curve, though single readings can be large or run the other way; note: nearly all actives have a fitted effect of over 50% in size
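Read-out: OD600 growth recovery of NS1-expressing budding yeast. Cells grown overnight at 30C in -URA glucose medium, washed, resuspended and diluted 1:100 in 2% galactose assay medium, pH 6.0. Same strain lacking NS1 served as positive control.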
2A StopGo: lowers the luciferase signal of an FMDV 2A StopGo reporter; human cells with a luciferase reporter of 2A StopGo recoding; control for the full effect not named in the record; Potency, µM (highest dose often 57.9 µM), without a hit: at the top dose signal change, negative = less light; 1.2% of 410,000 active; active = well fitted falling curve with a large enough effect; inconclusive = small, poorly fitted or top-dose-only effect; inactive = no such curve, though single readings can be large or run the other way; tested in HEK293T cells; note: % is set by controls: 0 for no effect and ±100 for the full control effect; nearly all actives have a fitted effect of over 45% in size; luciferase light after 4 h
Starred values were filed as active, the others as inactive; u = inconclusive; x = no result given; [ ] = another dose, or the depositor's remark. Potency is the fitted concentration of half-maximal effect. This is a subset. The share of hits here may be higher or lower than overall.

Second line of a record – RE007 growth inh, NS1 inh, 2A StopGo
> CC1(C(=O)NCc2ccc3c(c2)OCO3)CCN1C(=O)Cc1ccc(Cl)cc1Cl (stereo not drawn)
→ 4.2%[18.4 µM], x, -19.1%
> O=C(c1cc(C2CCCCN2S(=O)(=O)c2ccc(F)cc2F)on1)N1CCOCC1 (stereo not drawn)
→ 2.8%, x, u
> CCOC(=O)C1=CCN(S(=O)(=O)c2ccc(C)cc2)C1c1ccc(C(C)C)cc1 (stereo not drawn)
→ 2.8%, x, -10.1%
> C/C=C/c1cnc2c(c1)C(=O)N([C@@H](C)CO)C[C@H](C)[C@@H](CN(C)S(=O)(=O)c1ccc(C)cc1)O2
→ 3.6%, x, 54.7%[activator]
> O=C(NCC(c1ccco1)N1CCCC1)c1cccc(S(=O)(=O)N2CCCCC2)c1 (stereo not drawn)
→ -16.3%, x, -21.4%
> O=C(NCc1ccco1)Nc1nnc([C@H]2C[C@H](O)[C@@H](CO)O2)s1
→ 38.6%[18.4 µM], x, -13.5%
> C[C@H](NC(=O)c1[nH]cnc1C(=O)Nc1ccccc1F)c1ccccc1
→ -10.6%, x, -14.8%
> COC(=O)C1=C(C)N(CCCC(=O)O)C(=O)NC1c1ccccc1OS(=O)(=O)c1ccccc1[N+](=O)[O-] (stereo not drawn)
→ 2.3%, x, -4.8%
> COCOCCn1cc(CN2CCS(=O)(=O)N(Cc3ccc(-c4ccc(OC)c(OC)c4)cc3)C(CC(C)C)C2=O)nn1 (stereo not drawn)
→ -5.0%, x, u
> CC1(C(=O)Nc2ccc3c(c2)OCCO3)CCN1C(=O)Cc1ccc(-c2ccccc2)cc1 (stereo not drawn)
→ 0.8%[18.4 µM], x, 0.0%

More results follow:
Second line of a record – RE007 growth inh, NS1 inh, 2A StopGo
> COc1cccc(NC(=O)c2ccc3nc(C)c(N(C)Cc4ccc(NC(C)=O)cc4)n3c2)c1
→ -16.4%, x, 3.0%
> CSc1ccc(-c2ccc3c(c2)c(Sc2ccccc2)c(-c2ccccc2)n3C)cc1
→ 15.1%, x, -23.9%
> COc1ccc(OC)c(C(=O)NC2CCCc3c2cnn3-c2cc(C)cc(C)c2)c1 (stereo not drawn)
→ 3.9%, x, u
> Cc1cc(C)cc(C(O)c2ncc(-c3ccccc3F)[nH]2)c1 (stereo not drawn)
→ -11.5%, x, 67.1%[activator]
> CCOC(=O)/C=C/c1ccccc1S(=O)(=O)NC(C)(C)C
→ 11.4%, x, 18.0%
> Nc1[nH]c(C(=O)c2ccccc2)c(-c2ccncc2)c1C(=O)NCCc1c[nH]c2ccccc12
→ 0.1%, x, -20.7%
> Oc1ccc(C[C@H]2CN([C@@H](Cc3ccccc3)CN3CCCC3CN3C(=S)NC[C@@H]3Cc3ccccc3)C(=S)N2CC2CCCCC2)cc1 (stereo partly drawn)
→ -11.0%, x, 0.0%
> OCCOCCn1c(CCNc2nc(-c3ccc(F)cc3)cs2)nc2cc(C(F)(F)F)ccc21
→ 10.6%, x, u
> O=S(=O)(c1cccc2ccccc12)N1CCC2CC1c1cc(-c3ccc(F)cc3)ccc12 (stereo not drawn)
→ 2.7%, x, -24.7%
> COc1ccc(-c2ccc3c(c2)CN(CC(C)C)Cc2cnnn2-3)cc1
→ u, x, 9.4%

Next entries.
Second line of a record – RE007 growth inh, NS1 inh, 2A StopGo
> CC1=C(C(=O)N2CCOCC2)CC(CC(=O)NCc2cccc3ccccc23)C(=O)N1Cc1ccc(C(C)(C)C)cc1 (stereo not drawn)
→ 7.1%, x, -18.6%
> C[C@@H]1CN([C@@H](C)CO)C(=O)c2cc(Br)cnc2O[C@H]1CN(C)S(=O)(=O)c1cccs1
→ -9.6%, x, -5.4%
> COc1ccc(C(=O)Nc2ccc3c(c2)OCCO3)c(OC)c1
→ -6.3%, x, 46.1%[activator]
> C[C@@H]1ON(C)[C@H]2C[C@H]3c4cc(-c5cccc(F)c5)ccc4CCN3C(=O)[C@@H]12
→ -12.7%, x, u
> COc1ccc(CN2CCN(C(=O)c3ccco3)CC2)c(OC)c1OC
→ -5.1%, x, -18.2%
> CCOC1=C2CN(S(=O)(=O)c3ccc(C)cc3)CC[C@@H]2N(S(=O)(=O)c2ccc(C)cc2)[C@H](c2ccccc2)C1
→ 6.0%, x, -4.1%
> Cc1cc(NC(=O)CS(=O)(=O)c2cn(Cc3cccc(Br)c3)c3ccccc23)no1
→ 6.4%, x, 0.0%
> COC(=O)CCCn1cc(CN2CC(N3CCN(CCN(C)C)CC3)CS2(=O)=O)nn1 (stereo not drawn)
→ 9.9%, x, -11.1%
> CC(=O)OC[C@@H]1CN(Cc2ccccc2)C[C@H](n2cnc3c(N4CCCC4)ncnc32)O1
→ 0.8%, x, -7.3%
> C[C@H](CO)N1C[C@H](C)[C@@H](CN(C)S(=O)(=O)c2cccs2)OCc2cn(nn2)CCCC1=O
→ -1.7%, x, -23.5%

The listing continues.
Second line of a record – RE007 growth inh, NS1 inh, 2A StopGo
> C=C(C)CN1C(=O)C(C)SC1=NN=C1SCC(=O)N1C (stereo not drawn)
→ -11.4%, x, -22.9%
> CCCN(C)C1CN(Cc2cn(Cc3ccc(C)cc3)nn2)S(=O)(=O)C1 (stereo not drawn)
→ 5.2%, x, -7.6%
> COCCNc1nc(NCCOc2ccccc2)c2sc(-c3ccccc3)cc2n1
→ -1.0%, x, u
> Cc1ccc(Cc2c(-c3cccc(Cl)c3)nc3ccc(C)cn23)cc1
→ u, x, 23.5%
> CCOc1ccc(CCN2C(=S)N([C@@H](Cc3ccccc3)CN3CCCC3CN3C(=S)NC[C@@H]3Cc3ccccc3)C[C@@H]2Cc2ccc(O)cc2)cc1 (stereo partly drawn)
→ -7.0%, x, -2.4%
> CCOC(=O)[C@]12CCCC=C1N(Cc1ccc3c(c1)OCO3)C(=O)[C@H](CC(=O)NCc1cccc(C(F)(F)F)c1)C2
→ -21.5%, x, -14.5%
> CCOC(=O)[C@]12CCC=C1N(Cc1cccc3ccccc13)C(=O)[C@H](CC(=O)N1CCCC1)C2
→ 2.3%, x, -17.0%
> COc1cccc(C(O)c2ncc(-c3ccc4ccccc4c3)[nH]2)c1 (stereo not drawn)
→ 0.9%, x, 23.0%
> CCCNC(=O)C1(C)CCN(C(=O)c2cc(F)cc(F)c2)C1 (stereo not drawn)
→ -1.3%, x, -14.3%
> CC(C)CCN1C(=O)c2ccccc2C1c1nnnn1-c1ccc2c(c1)OCCO2 (stereo not drawn)
→ -7.0%, x, -6.1%

The list goes on:
Second line of a record – RE007 growth inh, NS1 inh, 2A StopGo
> COc1ccc(CC(N)c2csc(NC(=O)Nc3ccccc3Cc3ccccc3)n2)cc1 (stereo not drawn)
→ 4.2%, x, -28.9%
> CCC(=O)N1CCCC(C)(C(=O)Nc2ccc(OC)c(F)c2)C1 (stereo not drawn)
→ 10.3%, x, 4.9%
> Cn1c(=O)c2cc(NC(=S)NC3CC3)ccc2n1C/C=C/c1ccccc1
→ 15.1%, x, 17.8%
> COc1cc(Cl)ccc1OC1(C)CCN(Cc2c(F)cccc2F)C1 (stereo not drawn)
→ -19.8%, x, -20.5%
> OC(Cc1ccccc1)c1ncc(-c2ccc(Cl)cc2)[nH]1 (stereo not drawn)
→ -10.3%[18.4 µM], x, 20.4%
> COc1ccccc1CCn1cnc(-c2ccc(OC)c(OC)c2)c1C(C)C
→ u, x, u
> COc1ccc(OCCN2CCC(C(=O)NC(c3ccc(C)cc3)c3ccccn3)CC2)cc1 (stereo not drawn)
→ -1.3%, x, -13.6%
> CCC(=O)N1CCCC(C(=O)NCc2ccc(C(C)C)cc2)CC1 (stereo not drawn)
→ 0.3%, x, 2.4%
> COCOc1cccc(CN2CCC2(C)C(=O)Nc2ccc3c(c2)OCO3)c1 (stereo not drawn)
→ 6.7%, x, -13.9%
> COc1ccc(CN2CCC[C@]3(N[C@H](c4ccc(OC)cc4)[C@@H]4C(=O)N(C)C(=O)[C@@H]43)C2=O)cc1
→ -4.6%, x, -10.7%

(list continues)
Second line of a record – RE007 growth inh, NS1 inh, 2A StopGo
> CCN(CC)C(=O)C1=C(C)N(Cc2ccc(F)cc2)C(=O)C(CC(=O)NCCCCc2ccccc2)C1 (stereo not drawn)
→ -11.2%, x, u
> COc1ccc(-n2nnnc2C(c2cccs2)N2CCC(n3c(=O)[nH]c4ccccc43)CC2)cc1 (stereo not drawn)
→ 31.8%, x, -20.1%
> O=C1CN(C(=O)CN2CCN(S(=O)(=O)c3ccccc3F)CC2)c2ccccc2N1
→ -9.8%, x, -20.7%
> CC1(C(=O)NS(=O)(=O)Cc2ccccc2C(F)(F)F)CCN1C(=O)Cc1ccccc1 (stereo not drawn)
→ -4.6%, x, -14.3%
> C[C@H](O)[C@@H]1CN2CCc3c([nH]c4ccccc34)[C@@H]2C[C@@H]1N(C)C(=S)NCCc1ccccc1
→ -10.9%, x, -5.2%
> COc1ccc(C2NC(=O)NC(C)=C2C(=O)OC2CCCCC2)cc1 (stereo not drawn)
→ -1.8%, x, -20.7%
> Cc1ccc(C(=O)NCC(=O)N2CCN(c3ccccc3O)CC2)s1
→ -7.0%, x, -20.6%
> CC1(C(=O)NS(=O)(=O)C2CC2)CCN(C(=O)c2ccc3c(c2)OCO3)C1 (stereo not drawn)
→ 15.3%[18.4 µM], x, -3.6%
> N#Cc1ccc(-c2nc3ccc(Br)cn3c2Cc2cccc(Cl)c2)cc1
→ -15.7%, x, 31.5%[activator]
> CCC(c1nc2ccccc2[nH]1)n1c(=O)c(-c2cccnc2)nc2ccccc21 (stereo not drawn)
→ -7.3%, x, -12.5%

(listing goes on)
Second line of a record – RE007 growth inh, NS1 inh, 2A StopGo
> COc1cccc(C(O)c2nc(-c3ccccc3C)cs2)c1 (stereo not drawn)
→ -0.5%, x, -9.2%
> Cn1nc(C(C)(C)C)cc1NC(=O)C1(C)CCN1C(=O)CC(c1ccccc1)c1ccccc1 (stereo not drawn)
→ 12.4%, x, -22.2%
> CC(C)c1cccc(-c2csc(C(O)c3ccc(F)c(F)c3)n2)c1 (stereo not drawn)
→ 39.8µM*, x, 3.8%
> COc1cc(NC(=O)C2(C)CCN2C(C)C)cc(OC)c1OC (stereo not drawn)
→ 26.5%, x, -10.0%
> CC[C@H]1C=C[C@@H](C(C(=O)OC)C(=O)OC)CN1C(C)=O
→ -5.5%, x, -26.9%
> CCOC(=O)c1ccc2ncc(C(=O)OCC)c(NCCN(C)C)c2c1
→ -7.8%, 6.1%, -23.4%
> COc1ccc([C@@H](C)NC(=O)c2ccc3oc(C(C)C)nc3c2)cc1
→ -1.8%, -14.7%, 13.1%
> O=C(NCc1ccccn1)Nc1cc(Cl)ccc1Cl
→ 12.0%, -1.7%, 7.8%
> O=C(Nc1ccccc1)N(CCc1ccncc1)C1CCCCC1
→ -9.7%, -27.2%, -16.8%
> O=C(CSc1nc2ccccc2o1)Nc1nc2c(s1)CCCC2
→ -14.8%, -3.7%, u

(cont.)
Second line of a record – RE007 growth inh, NS1 inh, 2A StopGo
> CCC1Oc2ccc(C)cc2N(CC(=O)NCCc2ccc(OC)c(OC)c2)C1=O (stereo not drawn)
→ 10.4%, -18.0%, -28.5%
> COc1ccc(C(=O)N2CCCN(C)CC2)c(OC)c1
→ -3.5%, 4.9%, -11.3%
> Cc1cccc(CN2CCN(CC(=O)NCc3ccc(F)cc3)C2=O)c1
→ -3.2%, u, -6.7%
> COc1cc(CN2CCCC(C(=O)N3CCc4ccccc4C3)C2)cc(OC)c1OC (stereo not drawn)
→ -3.1%, 4.4%, u
> O=C(c1ccco1)N1CCN(C(=O)c2cccn3c(=O)c4c5c(sc4nc23)CCCC5)CC1
→ -6.5%, -0.6%, -1.3%
> CCOc1ccc(C2C(C(=O)NC)=C(C)Nc3nc4ccccc4n32)cc1OC (stereo not drawn)
→ -2.6%, -1.9%, -11.4%
> COc1ccc(C(=O)OCCN2C(=O)c3ccccc3C2=O)cc1OC
→ 20.7%, 16.6%, -10.0%
> Cc1nnc(SCC(=O)Nc2ccc(S(=O)(=O)Nc3ccc(Cl)nn3)cc2)s1
→ -7.6%, 18.8%, -11.2%
> CN(CCc1ccccc1)C1CCCN(S(=O)(=O)N(C)C)C1 (stereo not drawn)
→ 2.3%, 1.6%, -8.6%
> Cc1nn(CC(=O)Nc2c(F)c(F)cc(F)c2F)c(=O)c2cccn12
→ 1.9%, 8.2%, -9.9%
> COc1c(C)cccc1C(=O)Nc1cc(-c2nn3c(C)nnc3s2)ccc1C
→ -11.4%, 6.3%, u
> OCc1c(OCc2cccc(F)c2)ccc2ccccc12
→ -15.1%, -78.4%, 34.5%[activator]
